Screening results (PubChem BioAssay)
Rango dissoc inh = inhibition of RanGTP-driven Rango-importin beta dissociation. O95149+P62826. Biochemical FRET Rango-importin beta, RanGTP-induced dissociation. Potency, µM (titrated, usually from 46.1 µM), without a hit: top-dose activity change, negative = inhibition. 340,000 compounds, 0.071% hits. AID 540253; active means falling FRET ratio curve, often poorly fitted, with flat reads before Ran was added; inconclusive means other falling curves, or compound fluorescence or quenching; inactive means flat or rising ratio curve;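 also: potency is read from the fitted curve at half-maximal effect; % of control where 0% means no effect; nearly all actives have a fitted effect of over 45% in size; -100% = wells without RanGTP and RCC1; the record marks most hits as doubtful in a second field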
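FRET read at 45 min, room temperature: inhibitors block the CFP/YFP signal rise when RanGTP (0.6 uM Ran, 2 mM GTP, 0.2 uM RCC1) frees Rango (0.1 uM) from importin beta (0.25 uM). Pre-read after 5 min compound exposure flags interference.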
miR-21 FLuc = miR-21 reporter, rising signal | HeLa miR-21 FLuc reporter, luciferase, 48 h | 340,000 tested, under 10 active | AID 2288 | Potency, µM (titrated, usually from 38.3 µM), inactives show at the top dose reporter change, positive = more light; active = well fitted rising curve with a large enough effect; inconclusive = small, poorly fitted or top-dose-only effect; inactive = no such curve, though single readings can be large or run the other way;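 also: % of control where 0% means no effect; miR-21 action dims this reporter so a rising signal means less miR-21 action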
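HeLa cells endogenously expressing miR-21, stably carrying CMV-driven firefly luciferase with a downstream miR-21 binding site, 2000 cells/well. Titrations up to approximately 40 uM, 48 hours; luciferase luminescence read.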
GLA inh pH 4.5 = inhibitors of human alpha-galactosidase A at pH 4.5. activity change, negative = inhibition, % at 105 µM. 230,000 tested, under 10 active. AID 1467. P06280. purified enzyme, 4-MU-alpha-Gal fluorescence, pH 4.5; inconclusive = small, poorly fitted or top-dose-only inhibition, or a rising curve; inactive = flat fitted curve, though single readings scatter; no compound was filed as active;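 also: 0% = full activity with enzyme and -100% = basal without enzyme; dose as in the result columns while the protocol names 77 µM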
Rango complex inh = prevents formation of the Rango-importin beta complex | Rango CFP/YFP FRET sensor + importin beta, 45 min | Potency, µM (top dose mostly 92.2 µM), inactives show at the top dose inhibition of complex formation | AID 540263 | Q14974 | 340,000 compounds, 0.031% hits; active = rising FRET ratio curve, often small or poorly fitted; inconclusive = mostly compound fluorescence or quenching in the first reads; inactive = flat curves in all reads;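 also: potency is read from the fitted curve at half-maximal effect; 0% = DMSO wells and 100% = buffer wells lacking importin beta; nearly all actives have a fitted effect of over 15% in size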
Target sequence (Q14974 whole entry, looked up): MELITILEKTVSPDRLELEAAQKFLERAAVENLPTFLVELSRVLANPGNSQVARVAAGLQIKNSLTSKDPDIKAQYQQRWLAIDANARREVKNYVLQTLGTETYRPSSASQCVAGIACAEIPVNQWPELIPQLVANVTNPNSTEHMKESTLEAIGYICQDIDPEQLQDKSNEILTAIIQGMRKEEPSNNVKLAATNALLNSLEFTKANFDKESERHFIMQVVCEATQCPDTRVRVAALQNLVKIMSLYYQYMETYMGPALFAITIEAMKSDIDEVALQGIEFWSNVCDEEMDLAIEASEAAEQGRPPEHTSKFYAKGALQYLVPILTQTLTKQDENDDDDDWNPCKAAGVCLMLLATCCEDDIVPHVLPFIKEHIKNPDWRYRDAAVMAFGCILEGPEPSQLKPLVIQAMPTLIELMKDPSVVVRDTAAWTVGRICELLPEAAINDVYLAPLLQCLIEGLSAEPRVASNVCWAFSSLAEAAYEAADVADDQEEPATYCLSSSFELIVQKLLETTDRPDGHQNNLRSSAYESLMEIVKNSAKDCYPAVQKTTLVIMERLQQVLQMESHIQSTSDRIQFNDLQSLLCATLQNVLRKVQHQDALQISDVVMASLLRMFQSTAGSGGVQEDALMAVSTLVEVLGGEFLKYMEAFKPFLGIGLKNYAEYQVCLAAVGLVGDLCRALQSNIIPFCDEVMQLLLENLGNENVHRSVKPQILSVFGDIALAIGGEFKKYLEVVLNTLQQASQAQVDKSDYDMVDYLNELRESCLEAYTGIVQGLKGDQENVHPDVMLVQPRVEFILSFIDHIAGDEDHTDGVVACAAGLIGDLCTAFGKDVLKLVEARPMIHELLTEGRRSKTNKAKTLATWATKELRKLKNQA
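FRET biosensor (snurportin 1 IBB flanked by EYFP and cerulean), 50 nM, with compound 5 min, then 0.125 microM importin beta in PBS, 1 mM DTT, 0.02% Tween-20, 0.1% BSA. CFP/YFP ratio read after 45 min at room temperature; pre-read flags interference.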
An asterisk follows results filed as active; ? = inconclusive; . = no result given. Some of the compounds tested, so the mix of outcomes need not match the whole.

No. | molecule | Rango dissoc inh | miR-21 FLuc | GLA inh pH 4.5 | Rango complex inh
1 | Cc1cc(C(=O)OCC(=O)N(C)C2CCS(=O)(=O)C2)c(C)n1-c1ccccc1 (configuration not stated) | 1% | -7% | 4 | 2.5%
2 | CC(C)NC(=O)/C(C#N)=C/c1cccc(NC(=O)c2ccccc2Cl)c1 | 0% | 6% | 7 | 0.0%
3 | CCN(CC)CCNC(=O)c1cccc(NC(=O)C(=O)c2ccccc2NC(C)=O)c1 | 12% | -7% | 8 | 0.7%
4 | CC1(C)Cc2c(cnn2-c2cccc(F)c2)C(NC(=O)c2csnn2)C1 (configuration not stated) | ? | 2% | . | 0.8%
5 | COc1ccc(OC)c(S(=O)(=O)NCc2cccnc2)c1 | 8% | -3% | 0 | 0.2%
6 | Cc1ccc(-c2cc(C(=O)Nc3nn[nH]n3)c3ccccc3n2)c(C)c1 | 8% | -1% | 1 | 1.5%
7 | Cc1ccc(S(=O)(=O)N2CCC(C(=O)NCCCN3CCCC3=O)CC2)cc1 | 1% | . | . | -1.3%
8 | CCN(CC)S(=O)(=O)c1ccc2c(c1)nc(SCn1nnc3ccccc3c1=O)n2CC | -1% | -5% | 1 | 0.7%
9 | COc1ccc(CC(=O)OCC(=O)Nc2ccc(Cl)cn2)cc1 | -13% | 0% | 2 | -0.7%
10 | CCOc1ccc(-c2cccc(NC(=O)c3cccs3)c2)nn1 | -27% | . | . | 2.8%
11 | COc1ccc(S(N)(=O)=O)cc1C(=O)OCC(=O)N1CC(=O)Nc2ccccc21 | -6% | . | . | 5.3%
12 | O=C(NCCN1CCOCC1)c1cc(-c2ccc(F)cc2)nc2ccccc12 | 1% | . | . | 3.8%
13 | Cc1ccc(C(=O)Nc2ccc3c(c2)CCC3)o1 | -8% | -33% | -3 | -0.2%
14 | CC/C(=N\NC(=O)c1ccc(Br)cc1)c1ccccc1 | 6% | -13% | 4 | 5.2%
15 | CNC(=O)/C(=C\c1ccco1)NC(=O)c1ccco1 | -13% | 2% | . | -2.5%
16 | Cc1ccccc1COc1cccc(/C=N/NC(=O)c2nnn(-c3nonc3N)c2C)c1 | -2% | -6% | . | -0.3%
17 | COc1ccc(-c2csc(NC(=O)c3ccccc3NS(=O)(=O)c3ccc(C)cc3)n2)cc1 | 0% | 30% | -2 | -0.2%
18 | CCNc1nnc(SCC(=O)NC2CCCCCC2)s1 | -9% | . | . | -1.0%
19 | C[C@H]1CN([C@@H](C)CO)C(=O)c2cc(NC(=O)Nc3cccc4ccccc34)ccc2O[C@@H]1CN(C)Cc1ccc(-c2ccccc2)cc1 | 0% | . | . | 0.4%
20 | CC1=C(C(=O)Nc2ccccn2)C(c2ccc3c(c2)OCO3)C2=C(CC(C)(C)CC2=O)N1 (configuration not stated) | -21% | -31% | 2 | ?
21 | COc1ccc(C(=O)C(Cc2cc(C(C)=O)ccc2OC)N2CCCC2)cc1 (configuration not stated) | 2% | -1% | 0 | -1.0%
22 | COc1cccc(-c2cc(C(=O)N3CCN(C(c4ccccc4)c4ccccc4)CC3)no2)c1 | -7% | 10% | -3 | 0.5%
23 | CC(C)(C)n1nc2c(c1NC(=O)Cc1ccc([N+](=O)[O-])cc1)CS(=O)(=O)C2 | 16% | -1% | . | -6.3%
24 | Cn1c(=O)cc(OCCCC(=O)NCCC2=CCCCC2)c2ccccc21 | 28% | -2% | -2 | -0.5%
25 | Cc1ccn2c(Nc3ccc4c(c3)OCO4)c(-c3ccccn3)nc2c1 | ? | -51% | 10 | ?
26 | O=C(CN1CCCCCCC1)N/N=C/c1ccccc1F | -8% | -9% | 12 | -1.8%
27 | COc1ccccc1C(c1nnnn1CCc1ccccc1)N1CCCCCC1 (configuration not stated) | -6% | 2% | -10 | -2.1%
28 | O=C(O)C1CC=CCC1C(=O)NCc1ccc2c(c1)OCO2 (configuration not stated) | -2% | -3% | -5 | 1.4%
29 | COCC(C)NC(=O)c1cc(-c2ccccc2OC)on1 (configuration not stated) | 3% | -46% | -4 | 2.4%
30 | CCOC(=O)CSC1=C(C#N)C(c2ccc(Cl)cc2)CC(=O)N1 (configuration not stated) | 26% | -2% | 3 | 1.1%

Sorted by length of the SMILES (smallest number first): part of the list above.
No. | molecule | Rango dissoc inh | miR-21 FLuc | GLA inh pH 4.5 | Rango complex inh
26 | O=C(CN1CCCCCCC1)N/N=C/c1ccccc1F | -8% | -9% | 12 | -1.8%
28 | O=C(O)C1CC=CCC1C(=O)NCc1ccc2c(c1)OCO2 (configuration not stated) | -2% | -3% | -5 | 1.4%
27 | COc1ccccc1C(c1nnnn1CCc1ccccc1)N1CCCCCC1 (configuration not stated) | -6% | 2% | -10 | -2.1%
21 | COc1ccc(C(=O)C(Cc2cc(C(C)=O)ccc2OC)N2CCCC2)cc1 (configuration not stated) | 2% | -1% | 0 | -1.0%
23 | CC(C)(C)n1nc2c(c1NC(=O)Cc1ccc([N+](=O)[O-])cc1)CS(=O)(=O)C2 | 16% | -1% | . | -6.3%

More compounds
No. | molecule | Rango dissoc inh | miR-21 FLuc | GLA inh pH 4.5 | Rango complex inh
31 | COc1ccc(Cl)cc1S(=O)(=O)N1CCCC(C(=O)N2CCOCC2)C1 (configuration not stated) | -5% | 1% | . | -0.2%
32 | CCOC(=O)c1ccc(NC(=O)Nc2ccon2)cc1 | -8% | -8% | -1 | 5.9%
33 | Cc1c(Br)c(=O)oc2c(Br)c(O)c(O)cc12 | ? | 1% | -2 | ?
34 | CN1CCC[C@@H]1CCNC(=O)c1c(-c2ccc3c(c2)OCO3)noc1-c1ccsc1 | 1% | . | . | ?
35 | N#Cc1ccccc1NCc1ccccc1 | -14% | -21% | 1 | -0.3%
36 | Cc1ccc(-n2ncc3c2CCCC3NC(=O)CCCN2CCCC2=O)cc1C (configuration not stated) | 3% | 0% | . | 1.8%
37 | CCCCc1c(C)nc(Nc2ccc(OC)cc2)[nH]c1=O | 2% | -4% | -4 | -1.6%
38 | COc1ccc(-c2nc(N3CCC(C)CC3)[nH]c(=O)c2C#N)cc1 | 18% | -11% | -2 | -2.2%
39 | CCOC(=O)c1cnc(-n2nc(C)cc2C)nc1Oc1ccc(C(=O)OC)cc1 | 7% | -2% | -2 | 2.4%
40 | COCCNC(=O)C(C)Oc1ccccc1 (configuration not stated) | 19% | 0% | 7 | -2.8%

Three entries from above, set out differently.
| no. | Rango dissoc inh | miR-21 FLuc | GLA inh pH 4.5 | Rango complex inh | canonical_smiles |
| --- | --- | --- | --- | --- | --- |
| 37 | 2% | -4% | -4 | -1.6% | CCCCc1c(C)nc(Nc2ccc(OC)cc2)[nH]c1=O |
| 38 | 18% | -11% | -2 | -2.2% | COc1ccc(-c2nc(N3CCC(C)CC3)[nH]c(=O)c2C#N)cc1 |
| 39 | 7% | -2% | -2 | 2.4% | CCOC(=O)c1cnc(-n2nc(C)cc2C)nc1Oc1ccc(C(=O)OC)cc1 |

New compounds follow.
Values in the order: Rango dissoc inh, miR-21 FLuc, GLA inh pH 4.5, Rango complex inh
#41 O=C(NCCO)C1COc2ccccc2O1 (configuration not stated)
→ ?, -1%, -23, -2.5%
#42 O=C(CCCc1ccccc1)Nc1ccnn1C1CCN(Cc2ccccc2F)CC1
→ 15%, 6%, ., 1.9%
#43 CC1(c2ccc(OC(F)F)cc2)NC(=O)N(CC(=O)Nc2ccc(Cl)cc2F)C1=O (configuration not stated)
→ -4%, 5%, ., 0.9%
#44 CSc1ncc(Cl)c(C(=O)Nc2sc3c(c2C(=O)NCc2ccco2)CCCC3)n1
→ ., -2%, -7, .
#45 CC(C)CN1C(=O)c2ccc(C(=O)Nc3ccccc3C(=O)O)cc2C1=O
→ 4%, -37%, ., 0.1%
#46 COc1ccc(COCC(O)CN2CCN(S(=O)(=O)c3ccc(C(C)C)cc3)CC2)cc1 (configuration not stated)
→ -1%, ., ., 1.0%
#47 Cc1c(C(=O)NCc2ccccc2)c(-c2ccccc2)nn1-c1ccccc1
→ 6%, 5%, -3, 7.6%
#48 O=C(Cn1c(=O)[nH]c2ccsc2c1=O)NC1CCCCC1
→ 22%, 0%, 5, -1.7%
#49 COc1ccc(CN=C2NC(=O)CC(C(=O)Nc3ccc(F)cc3)S2)cc1 (configuration not stated)
→ -12%, -1%, -2, -0.3%
#50 Cc1cc(C(F)(F)F)n2ncc(-c3cccc(Br)c3)c2n1
→ 19%, -6%, 3, 2.1%
#51 Cc1ccc2nc(C)c(C(=O)NN=C3CCCCCC3)n2c1
→ -5%, 20%, 3, -1.8%
#52 CN(CC(=O)Nc1ccc(F)cc1)C(=O)c1cc2c(s1)CCCCC2
→ 3%, ., ., -0.7%
#53 O=C(CSc1cccc[n+]1[O-])N1CCc2ccccc21
→ -11%, -19%, -5, -2.7%
#54 COc1cc(/C=N\NC(=O)c2ccc(=O)[nH]n2)cc(OC)c1OC
→ 9%, -1%, 11, -3.1%
#55 CN1C(=O)CC(N2CCN(c3ccc(Cl)cc3)CC2)C1=O (configuration not stated)
→ -1%, -10%, 7, -3.8%
#56 CCCN1CCN(C(=O)c2cccc3c2C(=O)N(CCOC)C3)CC1
→ 5%, -1%, 3, 6.1%
#57 CCCCN(C(=O)c1cc(-c2ccncc2)nc2ccccc12)c1c(N)n(CC(C)C)c(=O)[nH]c1=O
→ 2%, ., ., ?
#58 COc1cc(CCCN2C(=S)NC[C@H]2Cc2ccc(O)cc2)cc(OC)c1OC
→ 0%, 19%, 2, 4.1%
#59 O=C(N/N=C/c1ccc2c(c1)OCO2)c1sc2cc(Cl)ccc2c1Cl
→ 1%, -4%, -2, -2.6%
#60 Cc1ccc(NC(=O)COC(=O)c2nn(C)cc2Cl)cc1
→ 2%, -1%, ., -2.8%
#61 COc1ccc(OC)c(NC(=O)CN2CCC(C(=O)c3ccc(C)cc3)CC2)c1
→ -20%, -1%, -8, 0.1%
#62 Cc1ccc(NC(=O)Cn2c(=O)n(CCCCC(=O)NCc3ccco3)c(=O)c3ccccc32)cc1
→ 32%, 8%, 7, -0.3%
#63 CCC(C)NC(=O)CSc1nnc(-c2ccoc2C)n1CC1CCCO1 (configuration not stated)
→ 24%, -6%, -8, -0.1%
#64 COc1cccc(C(c2c(O)nc(SC)n(C)c2=O)c2c(O)nc(SC)n(C)c2=O)c1
→ 0%, 0%, -1, -5.1%
#65 CN(C(=O)CSc1ccncc1)C1CCCN(Cc2ccccc2F)C1 (configuration not stated)
→ 10%, -4%, ., -3.2%
#66 COc1ccc(OC)c(-c2cc(C(=O)Nc3cc(C)n(Cc4ccc(Cl)cc4)n3)no2)c1
→ ?, 0%, -1, 1.6%
#67 COc1ccc(CCNC(=O)COC(=O)CSc2ccc(C(N)=O)cc2[N+](=O)[O-])cc1OC
→ 7%, ., ., 3.5%
#68 COc1ccc(OC)c(/C=N/N(CCC#N)C2=NS(=O)(=O)c3ccccc32)c1
→ ?, 0%, ., -2.4%
#69 COc1ccc(-c2csc(NC(=O)CN3C(=O)C4CC=CCC4C3=O)n2)cc1 (configuration not stated)
→ -1%, ., ., 4.0%
#70 COC(=O)Cc1cc(=O)oc2cc(O)ccc12
→ ?, -6%, ?, ?
#71 O=C(CSc1nc2ccccc2s1)NCc1cc([N+](=O)[O-])ccc1O
→ -13%, ., ., -0.1%
#72 Cc1nn(C)c(C)c1NC(=O)Nc1cccc(C(F)(F)F)c1
→ -7%, -7%, -5, -1.5%
#73 C/C(=N\NC(=O)c1cccc([N+](=O)[O-])c1)c1cccc(NC(=O)C2CC2)c1
→ 0%, 2%, 5, -0.5%
#74 Cc1ccc2c(c1)NC(=O)C(CC(=O)NCc1cccnc1)O2 (configuration not stated)
→ 8%, -1%, -6, 0.1%
#75 COc1cccc(NC(=O)Nc2nnc(N3C(C)CCCC3C)s2)c1 (configuration not stated)
→ -4%, 4%, -6, -0.8%
#76 O=[N+]([O-])c1cc(C(F)(F)F)ccc1Sc1ccc2ccccc2n1
→ 13%, -3%, -6, 1.2%
#77 CC(C)(C)OC(=O)C[C@@H]1C/C=C\C[C@H](CC(=O)N[C@H](CO)Cc2ccccc2)C(=O)N[C@H](C(C)(C)C)COC1=O
→ 16%, ., ., -2.0%
#78 CCCS(=O)(=O)c1nc(C)cc(C)c1S(C)(=O)=O
→ 1%, -1%, 7, -2.2%
